# Compound activity: PubChem, Broad Institute
# Yeast UUG start: alters start codon recognition fidelity in yeast. S. cerevisiae UUG-firefly luciferase reporter, luminescence/redox ratio. activity score, % at 18.7 µM. actives 0.13% (n = 350,000). AID 602363;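 active = replicate mean at a twofold rise or more, about +100% in these data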;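 also: firefly luciferase made from a UUG start codon reports start codon fidelity; reporter light over untreated wells divided by growth signal over untreated wells; some hits fall short of that in this replicate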
# Env fusion inh: HIV envelope-mediated fusion inhibition | HeLa-JRFL Env/CEM21 cell fusion, luciferase | inhibition, % at 12.3 µM | actives 1.1% (n = 360,000) | AID 651610;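 active = mean replicate inhibition score of at least 50 and every replicate individually at or above 50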;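 also: 0% = plate neutral controls and 100% = maraviroc near 300 nM; one replicate is shown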
# The depositor's hits bear a star; & = joins results of further samples; [ ] = dose if it differs, or a comment. Some of the compounds tested; count on the stated rates, not on these rows.
SMILES,Yeast UUG start,Env fusion inh
CC(=O)N(C)C[C@H]1Oc2cc(C#Cc3ccccn3)ccc2S(=O)(=O)N([C@H](C)CO)C[C@@H]1C,12,6[16.7 µM]
COC(=O)C[C@@H]1CC[C@@H]2[C@H](COc3ccc(NC(=O)NCc4ccccc4)cc3C(=O)N2C)O1,-9,6[16.7 µM]
C[C@H](CO)N1C[C@H](C)[C@H](CN(C)C)Oc2ncc(C#CC(C)(C)O)cc2C1=O,0,1[16.7 µM]
CO[C@H]1CN(C)C(=O)c2ccc(NS(=O)(=O)c3ccc(C)cc3)cc2OC[C@@H](C)N(C)C[C@@H]1C,-4,12[16.7 µM]
C[C@H](CO)N1C[C@H](C)[C@@H](CN(C)C(=O)Nc2ccc(C(F)(F)F)cc2)OCCCC[C@H](C)Oc2ccc(NC(=O)Nc3ccccc3)cc2C1=O,-11,3[16.7 µM]
C/C=C/c1cnc2c(c1)C(=O)N([C@@H](C)CO)C[C@H](C)[C@@H](CN(C)C(=O)Nc1ccc(OC)cc1)O2,4,-1[16.7 µM]
O=C(Nc1ccc2c(c1)[C@H]1C[C@H](CC(=O)N3CCCCC3)O[C@@H](CO)[C@H]1O2)Nc1ccccc1F,-3,-9[16.7 µM]
C[C@H]1CN([C@@H](C)CO)C(=O)c2cccc(NS(=O)(=O)c3ccccc3)c2O[C@@H]1CN(C)S(=O)(=O)c1ccccc1,11,5[16.7 µM]
COc1ccc(NC(=O)Nc2ccc3c(c2)C(=O)N([C@H](C)CO)C[C@@H](C)[C@@H](CN(C)Cc2ccccc2)O3)cc1,4,-24[16.7 µM]
C[C@H]1CN([C@@H](C)CO)C(=O)Cc2cc(NC(=O)Nc3cccc4ccccc34)ccc2O[C@H]1CN(C)Cc1ccc(C(F)(F)F)cc1,3,3[16.7 µM]
C[C@H](CO)N1C[C@H](C)[C@@H](CN(C)Cc2ccc(Oc3ccccc3)cc2)Oc2ccc(NC(=O)Nc3cccc4ccccc34)cc2CC1=O,-8,-14[16.7 µM]
CCCC(=O)Nc1ccc2c(c1)C(=O)N(C)[C@@H]1CC[C@@H](CC(=O)N3CCc4ccccc4C3)O[C@@H]1CO2,12,-9[16.7 µM]
C[C@H]1CN([C@@H](C)CO)C(=O)c2cccc(NC(=O)C3CCCCC3)c2O[C@@H]1CN(C)C(=O)NC1CCCCC1,5,10[16.7 µM]
C[C@H]1CN([C@@H](C)CO)C(=O)c2cccc(NS(C)(=O)=O)c2O[C@H]1CN(C)S(=O)(=O)c1ccccc1,-18,-17[16.7 µM]
Cc1noc(C)c1NC(=O)N[C@@H]1CC[C@H](CC(=O)N2CCCCC2)O[C@@H]1CO,-21,-15[16.7 µM]
Cc1noc(C)c1NC(=O)Nc1cccc2c1O[C@H](CN(C)Cc1ccc(C(F)(F)F)cc1)[C@@H](C)CN([C@@H](C)CO)C2=O,21,-21[16.7 µM]
Cc1ccc(S(=O)(=O)N(C)C[C@H]2Oc3c(NC(=O)Nc4c(C)noc4C)cccc3C(=O)N([C@@H](C)CO)C[C@@H]2C)cc1,-1,2[16.7 µM]
CC(C)NC(=O)N(C)C[C@@H]1Oc2ncc(C3=CCCCC3)cc2C(=O)N([C@H](C)CO)C[C@@H]1C,3,-11[16.7 µM]
Cc1noc(C)c1S(=O)(=O)Nc1ccc2c(c1)C(=O)N([C@@H](C)CO)C[C@H](C)[C@H](CN(C)S(=O)(=O)c1ccc(Cl)cc1)O2,-4,8[16.7 µM]
C[C@@H]1CN([C@@H](C)CO)C(=O)c2cccc(NS(=O)(=O)c3ccc(F)cc3)c2O[C@H]1CN(C)C(=O)Nc1ccc2c(c1)OCO2,9,-42[16.7 µM]
Cc1noc(C)c1S(=O)(=O)N(C)C[C@@H]1OCCCC[C@@H](C)Oc2ccc(NS(=O)(=O)c3ccccc3)cc2C(=O)N([C@H](C)CO)C[C@@H]1C,1,-26[16.7 µM]
C[C@@H]1CCCCO[C@@H](CN(C)Cc2ccc(Cl)c(Cl)c2)[C@@H](C)CN([C@@H](C)CO)C(=O)c2cc(NC(=O)Cc3ccccc3)ccc2O1,19,-33[16.7 µM]
C[C@@H]1CN([C@@H](C)CO)C(=O)CCCn2nncc2CO[C@H]1CN(C)C(=O)Nc1ccc(N2CCN(C)CC2)cc1,-8,-13
C[C@H]1CN([C@@H](C)CO)C(=O)Cc2cc(NC(=O)Nc3ccc(C(F)(F)F)cc3)ccc2O[C@H]1CN(C)S(=O)(=O)c1cn(C)cn1,-15,15[16.7 µM]
C[C@H]1CN([C@@H](C)CO)C(=O)c2cc(NC(=O)Cc3ccccc3)ccc2O[C@@H]1CN(C)C(=O)Nc1ccccc1,9,-7[16.7 µM]

# 4 of the compounds above, field by field.
> COC(=O)C[C@@H]1CC[C@@H]2[C@H](COc3ccc(NC(=O)NCc4ccccc4)cc3C(=O)N2C)O1
  Yeast UUG start: -9; Env fusion inh: 6[16.7 µM]
> C[C@H](CO)N1C[C@H](C)[C@H](CN(C)C)Oc2ncc(C#CC(C)(C)O)cc2C1=O
  Yeast UUG start: 0; Env fusion inh: 1[16.7 µM]
> CO[C@H]1CN(C)C(=O)c2ccc(NS(=O)(=O)c3ccc(C)cc3)cc2OC[C@@H](C)N(C)C[C@@H]1C
  Yeast UUG start: -4; Env fusion inh: 12[16.7 µM]
> C[C@H](CO)N1C[C@H](C)[C@@H](CN(C)C(=O)Nc2ccc(C(F)(F)F)cc2)OCCCC[C@H](C)Oc2ccc(NC(=O)Nc3ccccc3)cc2C1=O
  Yeast UUG start: -11; Env fusion inh: 3[16.7 µM]

# Fetched one by one from above (seven):
SMILES,Yeast UUG start,Env fusion inh
C[C@@H]1CN([C@@H](C)CO)C(=O)CCCn2nncc2CO[C@H]1CN(C)C(=O)Nc1ccc(N2CCN(C)CC2)cc1,-8,-13
CCCC(=O)Nc1ccc2c(c1)C(=O)N(C)[C@@H]1CC[C@@H](CC(=O)N3CCc4ccccc4C3)O[C@@H]1CO2,12,-9[16.7 µM]
Cc1noc(C)c1NC(=O)N[C@@H]1CC[C@H](CC(=O)N2CCCCC2)O[C@@H]1CO,-21,-15[16.7 µM]
C[C@H]1CN([C@@H](C)CO)C(=O)c2cccc(NS(=O)(=O)c3ccccc3)c2O[C@@H]1CN(C)S(=O)(=O)c1ccccc1,11,5[16.7 µM]
C[C@H]1CN([C@@H](C)CO)C(=O)c2cccc(NC(=O)C3CCCCC3)c2O[C@@H]1CN(C)C(=O)NC1CCCCC1,5,10[16.7 µM]
Cc1noc(C)c1NC(=O)Nc1cccc2c1O[C@H](CN(C)Cc1ccc(C(F)(F)F)cc1)[C@@H](C)CN([C@@H](C)CO)C2=O,21,-21[16.7 µM]
Cc1noc(C)c1S(=O)(=O)N(C)C[C@@H]1OCCCC[C@@H](C)Oc2ccc(NS(=O)(=O)c3ccccc3)cc2C(=O)N([C@H](C)CO)C[C@@H]1C,1,-26[16.7 µM]

# New compounds follow
SMILES,Yeast UUG start,Env fusion inh
C[C@@H]1CN([C@H](C)CO)C(=O)c2cc(N(C)C)ccc2O[C@@H](C)CCCCO[C@H]1CN(C)C(=O)Nc1cccc2ccccc12,14,21[16.7 µM]
COc1ccc(S(=O)(=O)N(C)C[C@H]2Oc3ccc(NC(=O)c4ccncc4)cc3CC(=O)N([C@H](C)CO)C[C@H]2C)cc1,-12,-6[16.7 µM]
C[C@@H]1CCCCO[C@H](CN(C)Cc2ccc(Cl)c(Cl)c2)[C@H](C)CN([C@@H](C)CO)C(=O)c2cc(NS(C)(=O)=O)ccc2O1,0,23[16.7 µM]
COc1ccc(S(=O)(=O)N(C)C[C@@H]2OCCCC[C@H](C)Oc3ccc(NS(=O)(=O)c4ccc(C)cc4)cc3C(=O)N([C@H](C)CO)C[C@H]2C)cc1,7,1[16.7 µM]
C[C@H](CO)N1C[C@H](C)[C@@H](CN(C)Cc2ccc3c(c2)OCO3)Oc2ccc(NC(=O)C3CCCCC3)cc2CC1=O,8,-7[16.7 µM]
COCC(=O)N1[C@H](C#N)[C@H](c2ccc(C#Cc3ccccc3F)cc2)[C@H]1CO,-28,9[16.7 µM]
COc1ccc(CN(C)C[C@@H]2OCCCC[C@@H](C)Oc3ccc(NC(=O)Nc4ccc(F)cc4)cc3C(=O)N([C@@H](C)CO)C[C@H]2C)cc1,31,4[16.7 µM]
Cc1ccc(S(=O)(=O)Nc2ccc3c(c2)C(=O)N([C@@H](C)CO)C[C@H](C)[C@H](CN(C)S(=O)(=O)c2ccc(C)cc2)O3)cc1,-1,13[16.7 µM]
Cc1noc(C)c1NC(=O)N(C)C[C@H]1OCCCC[C@@H](C)Oc2ccc(N(C)C)cc2C(=O)N([C@@H](C)CO)C[C@H]1C,2,-58[16.7 µM]
CNC(=O)C[C@H]1CC[C@@H]2[C@H](COc3ccc(NC(=O)NCc4ccccc4)cc3C(=O)N2C)O1,16,-12[16.7 µM]
CCC(=O)Nc1ccc2c(c1)C(=O)N(C)C[C@@H](OC)[C@@H](C)CN(Cc1ccccc1OC)[C@@H](C)CO2,25,2[16.7 µM]
CCC(=O)N[C@@H]1CC[C@H](CC(=O)NCc2ccccc2OC)O[C@H]1CO,-15,-48[16.7 µM]
COc1ccc(NC(=O)N(C)C[C@@H]2OCCCC[C@@H](C)Oc3ccc(NS(C)(=O)=O)cc3C(=O)N([C@H](C)CO)C[C@H]2C)cc1,4,-33[16.7 µM]
COc1cccc(C#Cc2ccc3c(c2)O[C@@H](CN(C)C(=O)c2ccccn2)[C@H](C)CN([C@@H](C)CO)S3(=O)=O)c1,0,-7[16.7 µM]
Cc1ccc(S(=O)(=O)Nc2ccc3c(c2)CC(=O)N([C@H](C)CO)C[C@H](C)[C@@H](CN(C)Cc2ccc(-c4ccccc4)cc2)O3)cc1,7,18[16.7 µM]
O=C(C[C@H]1CC[C@H]2[C@@H](COC[C@@H](O)CN2S(=O)(=O)c2ccccc2)O1)N1CCOCC1,-12,-12[16.7 µM]
Cc1ccc(S(=O)(=O)N(C)C[C@H]2Oc3ccc(NC(=O)Cn4cnnn4)cc3CC(=O)N([C@@H](C)CO)C[C@@H]2C)cc1,-1,10[16.7 µM]
Cc1ccccc1-c1cnc2c(c1)C(=O)N([C@H](C)CO)C[C@H](C)[C@H](CN(C)Cc1ccncc1)O2,-4,14[16.7 µM]
COc1ccc(NC(=O)N(C)C[C@@H]2Oc3c(NC(=O)Nc4ccc5c(c4)OCO5)cccc3C(=O)N([C@H](C)CO)C[C@H]2C)cc1,4,-2[16.7 µM]
COCCNC(=O)C[C@H]1C[C@@H]2c3cc(NC(=O)NC4CCCCC4)ccc3O[C@@H]2[C@H](CO)O1,2,-22[16.7 µM]
C[C@@H]1CN([C@@H](C)CO)C(=O)c2cc(/C=C/c3ccccc3)cnc2O[C@H]1CN(C)C,0,-4[16.7 µM]
C[C@H](CO)N1C[C@H](C)[C@@H](CN(C)S(=O)(=O)c2ccccc2)Oc2ccc(NS(=O)(=O)c3cccs3)cc2CC1=O,8,-17[16.7 µM]
Cc1noc(C)c1S(=O)(=O)Nc1ccc2c(c1)C(=O)N([C@@H](C)CO)C[C@@H](C)[C@@H](CN(C)S(=O)(=O)c1ccccc1)OCCCC[C@H](C)O2,-18,-29[16.7 µM]
O=C(C[C@@H]1C=C[C@H](NC(=O)Nc2ccccc2F)[C@@H](CO)O1)NCc1ccc(F)cc1,-2,-17[16.7 µM]
C[C@H]1CCCCO[C@@H](CN(C)C(=O)Nc2ccccc2)[C@@H](C)CN([C@@H](C)CO)C(=O)c2cc(NS(=O)(=O)c3cccs3)ccc2O1,2,-60[16.7 µM]
C[C@@H]1CN([C@@H](C)CO)C(=O)CCCn2cc(nn2)CO[C@H]1CN(C)C(=O)Nc1ccnc(N2CCOCC2)c1,21&-6,10[16.7 µM]
C[C@@H](NC(=O)C[C@H]1C=C[C@@H](NC(=O)c2cccnc2)[C@H](CO)O1)c1ccccc1,-15,13[16.7 µM]
C[C@H]1CN([C@@H](C)CO)C(=O)c2cc(/C=C/c3ccccc3)cnc2O[C@H]1CN(C)S(=O)(=O)c1ccccc1F,-4&-6,16[16.7 µM]
C[C@H](CO)N1C[C@H](C)[C@H](CN(C)S(=O)(=O)c2cn(C)cn2)Oc2c(NC(=O)C3CC3)cccc2C1=O,-2,-5[16.7 µM]
